Screens (PubChem)
Prx2 Sm inh – Schistosoma Mansoni Peroxiredoxins (Prx2). Schistosoma mansoni peroxiredoxin 2 (Prx2). S. mansoni Prx2 activity coupled to TGR/GSH (TGR is thioredoxin glutathione reductase), NADPH fluorescence loss, qHTS; some inactives read as strong as hits. Potency, µM. hit rate 0.07% among 65,000; active means full or partial inhibition curve with a strong effect at the top dose; inconclusive means weaker partial or single-point curve; inactive means no accepted curve; also: series up to 57 µM; many of its hits are not listed in these tables
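Coupled assay in which S. mansoni TGR passes NADPH reducing equivalents via glutathione to Prx2, which reduces H2O2. Compounds were preincubated 15 min at room temperature with 25 nM TGR/50 nM Prx2 mix. Kinetic NADPH fluorescence loss (ex 365/em 450 nm) was monitored.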
LT uptake inh – qHTS Assay for Anthrax Lethal Toxin Internalization | Potency, µM (doses to about 40 µM), for inactives: at the highest dose activity change, negative = inhibition, hits mostly inhibitors | Cells, anthrax lethal toxin internalization, FRET ratio (460/530) | hit rate 0.67% among 70,000; active = well fitted falling ratio curve with the 530 nm signal flat; inconclusive = other ratio curves, or a change in one channel alone; inactive = flat curves in the ratio and both channels; the % refers to the ratio; also: % is scaled to controls: 0 for no effect and ±100 for the full control effect; nearly all actives have a fitted effect of over 50% in size; tested in ME-180 cells; beta-lactamase reporter
* = called active by the depositor; & = joins results of further samples; [ ] = another dose, or the depositor's remark. Potency is read from the fitted curve at half-maximal effect. The list is partial; count on the stated rates, not on these rows.

`Cc1sc2nc(CN(CCc3ccccc3)C(=O)c3ccco3)[nH]c(=O)c2c1C` gave Prx2 Sm inh >57 and LT uptake inh 10.5%.
For Nc1nonc1N1CCCCC1 the results were Prx2 Sm inh >57 and LT uptake inh 5.5%.
Screening O=C(O)CSc1ccccn1 returned Prx2 Sm inh >57 and LT uptake inh -10.0%.
For CCOC(=O)c1ccccc1NC(=O)CN1C(=O)CCS(=O)(=O)c2ccccc21 the results were Prx2 Sm inh >57 and LT uptake inh -9.9%.
COC(=O)[C@@H](NC(=O)N(C1CCCCC1)C1CCCCC1)C(C)C was read as Prx2 Sm inh >57 and LT uptake inh -13.5%.
`Clc1ccc2nc(N3CCCCC3)[nH]c2c1` gave Prx2 Sm inh >57 and LT uptake inh 10.4%.
Screening O=C(Nc1cccc(C(=O)N2CCOCC2)c1)c1cncc(Br)c1 returned Prx2 Sm inh >57 and LT uptake inh -1.7%.
Nc1ncnc2c1nc(Sc1ccc(Cl)cc1)n2[C@@H]1O[C@H]2COP(=O)(O)O[C@@H]2[C@H]1O was read as Prx2 Sm inh >57 and LT uptake inh 2.4%.
O=C(COC(=O)Cc1cccc(C(F)(F)F)c1)NCC1CCCO1 (centres undefined) was read as Prx2 Sm inh >57 and LT uptake inh 2.3%.
`Cc1cccc(CNC(=O)c2ccccc2N)c1` gave Prx2 Sm inh >57 and LT uptake inh 5.1%.
For Cc1cccc(C)c1NC(=O)c1c(-c2ccccc2)noc1C the results were LT uptake inh -17.5%.
For Cc1ccc(C)n1-n1c(C)nc2sc(-c3ccccc3)cc2c1=O the results were LT uptake inh inconclusive.

For convenience, part of the list above.
Screening O=C(Nc1cccc(C(=O)N2CCOCC2)c1)c1cncc(Br)c1 returned Prx2 Sm inh >57 and LT uptake inh -1.7%.
Nc1ncnc2c1nc(Sc1ccc(Cl)cc1)n2[C@@H]1O[C@H]2COP(=O)(O)O[C@@H]2[C@H]1O was read as Prx2 Sm inh >57 and LT uptake inh 2.4%.
O=C(COC(=O)Cc1cccc(C(F)(F)F)c1)NCC1CCCO1 (centres undefined) was read as Prx2 Sm inh >57 and LT uptake inh 2.3%.
`Cc1cccc(CNC(=O)c2ccccc2N)c1` gave Prx2 Sm inh >57 and LT uptake inh 5.1%.
For Cc1cccc(C)c1NC(=O)c1c(-c2ccccc2)noc1C the results were LT uptake inh -17.5%.
For Cc1ccc(C)n1-n1c(C)nc2sc(-c3ccccc3)cc2c1=O the results were LT uptake inh inconclusive.

New compounds follow.
`C=CCOc1ccccc1CNn1nnnc1N` gave Prx2 Sm inh >57 and LT uptake inh 8.6%.
`CN(C)C(=O)c1ccc(-c2nc(NCc3ccccc3)c3ccccc3n2)cc1` gave Prx2 Sm inh >57 and LT uptake inh -13.6%.
`O=S(=O)(c1ccccc1)N1CCN(C2CCN(Cc3ccccc3)CC2)CC1` gave LT uptake inh -5.0%.
`CC[C@@]1(c2ccc(N)cc2)CCC(=O)NC1=O` gave Prx2 Sm inh >57&>57 and LT uptake inh -11.8%[3.58 µM].
`O=C(OC(C(=O)NCc1ccc2c(c1)OCO2)c1ccc(Cl)cc1)c1ccco1` (centres undefined) gave Prx2 Sm inh >57 and LT uptake inh -0.1%.
For O=C(OCc1ccco1)c1ccc(S(=O)(=O)N2CCCCC2)cc1 the results were Prx2 Sm inh >57 and LT uptake inh 0.4%.
`CC1=C(C(=O)Nc2ccccn2)C(c2ccc(N(C)C)cc2)n2ncnc2N1` (centres undefined) gave Prx2 Sm inh >57 and LT uptake inh 13.9%.
CC(C)C(=O)Nc1nnc(SCC(=O)NC2CC2)s1 was read as Prx2 Sm inh >57 and LT uptake inh -3.9%.
Screening NCCCNCCCCN(CCCN)/[N+]([O-])=N/O returned Prx2 Sm inh >57 and LT uptake inh -22.3%.
Screening CCCCN(C)S(=O)(=O)c1cc(Br)cc2c1N(C(=O)C1CC1)CC2 returned Prx2 Sm inh >57 and LT uptake inh -0.1%.
`CC1CCCCC1NC(=O)C1CCN(C(=O)NC2CCCCC2)CC1` (centres undefined) gave Prx2 Sm inh >57 and LT uptake inh inconclusive.
For CSc1nc2ccccc2c(=O)n1N the results were Prx2 Sm inh >57 and LT uptake inh 8.7%.
For Cc1onc(C(=O)N2CCC(C(N)=O)CC2)c1-c1ccccc1Cl the results were Prx2 Sm inh >57 and LT uptake inh 0.5%.
CN(C)c1ccc(-c2nn3c(-c4ccc(Cl)cc4Cl)nnc3s2)cc1 was read as Prx2 Sm inh >57 and LT uptake inh -13.3%.
CCOC(=O)CSc1nc2c(c(-c3ccc(C)o3)c1C#N)CCCC2 was read as LT uptake inh inconclusive.
`CC(C)(C)N1C(=O)[C@H]2[C@H]3[C@H](O)[C@H](O)C/C(=N/OCc4ccccc4)[C@@H]3CC[C@@H]2C1=O` gave LT uptake inh 2.3%[8 µM].
`Cc1ccc(C(=O)NCCCn2ccnc2)o1` gave LT uptake inh -1.0%.
For O=C(C1CCN(S(=O)(=O)c2cnc[nH]2)CC1)N1CCc2ccccc2C1 the results were Prx2 Sm inh >57 and LT uptake inh -5.1%.
CCOc1ccc(-c2noc(-c3cccnc3)n2)cc1OC was read as Prx2 Sm inh >57.
For CCCNS(=O)(=O)c1cccc2cccnc12 the results were Prx2 Sm inh >57 and LT uptake inh -5.3%.
O=C(CN1CCN(Cc2ccccc2)CC1)NC(=O)NC1CCCCC1 was read as Prx2 Sm inh >57 and LT uptake inh 5.7%.
CCC(C)N1CC(O)=C(c2nc3ccccc3[nH]2)C1=N (centres undefined) was read as Prx2 Sm inh >57 and LT uptake inh -8.1%.
CCn1c(N)c(C(=O)NCc2ccco2)sc1=S was read as Prx2 Sm inh >57 and LT uptake inh -8.9%.
Screening CCC(=O)c1ccc(OCCN2CCOCC2)cc1 returned Prx2 Sm inh >57 and LT uptake inh 12.5%.
Cc1cccc(N2CCCn3c2nc2c3c(=O)n(CCN3CCOCC3)c(=O)n2C)c1 was read as Prx2 Sm inh >57 and LT uptake inh 2.6%.
`CS(=O)(=O)N(CC(=O)Nc1ccccc1C(=O)N1CCOCC1)c1ccc2c(c1)OCO2` gave Prx2 Sm inh >57 and LT uptake inh inconclusive.
`COc1ccc(OCCCC(=O)Nc2nncs2)cc1` gave Prx2 Sm inh >57 and LT uptake inh -9.3%.
`CCOC(=O)CSc1nc2cc(C)cc(C)c2cc1C#N` gave Prx2 Sm inh >57 and LT uptake inh 2.4%.
Screening NS(=O)(=O)c1ccc(CCNC(=O)CCC2COc3ccccc3O2)cc1 (centres undefined) returned Prx2 Sm inh >57 and LT uptake inh 0.7%.
For Cc1cc(C)c2[nH]c(=O)c(C(c3nnnn3C3CCCC3)N3CCOCC3)cc2c1 (centres undefined) the results were Prx2 Sm inh >57 and LT uptake inh -0.1%.
For CCOC(=O)N1CCN(C(=O)CN(C2CCCCC2)S(=O)(=O)c2ccc(C)cc2)CC1 the results were Prx2 Sm inh >57 and LT uptake inh 9.6%.
COC(=O)COc1ccc(S(=O)(=O)NCc2ccco2)cc1 was read as Prx2 Sm inh >57 and LT uptake inh 3.8%.
Screening COc1ccc(Nc2ncnc3c2cnn3Cc2ccccc2)cc1 returned Prx2 Sm inh >57 and LT uptake inh inconclusive.
For N/C(=N\O)c1ccc(NC(=O)c2cccs2)cc1 the results were Prx2 Sm inh >57 and LT uptake inh -15.2%.
`O=C(c1ccco1)N1CCN(c2nc3ccccc3n3nnnc23)CC1` gave Prx2 Sm inh >57 and LT uptake inh -3.8%.
O=C(CN1C(=O)COc2ccccc21)N(CCCN1CCOCC1)CC1CC=CCC1 (centres undefined) was read as Prx2 Sm inh >57 and LT uptake inh 8.7%.
`c1ccc2[nH]c(N3CCOCC3)nc2c1` gave Prx2 Sm inh >57 and LT uptake inh 3.6%.
Screening O=C(CSc1nn(-c2ccc(F)cc2)c(=S)s1)NC(=O)NCc1ccco1 returned Prx2 Sm inh >57 and LT uptake inh -3.7%.
Screening COc1ccc(NC(=O)C2CCN(Cc3cnn(-c4ccccc4)c3-n3cccc3)CC2)cc1OC returned Prx2 Sm inh >57 and LT uptake inh 13.5%.
Screening COc1ccc2[nH]cc(CCNc3cc(-c4ccoc4)ncn3)c2c1 returned Prx2 Sm inh >57 and LT uptake inh -5.9%.
COc1nc(N(C)C)nc(-n2nnc(C(C)=O)c2C)n1 was read as Prx2 Sm inh >57 and LT uptake inh 7.4%.
Cc1ccc(S(=O)(=O)Nc2cc(C(=O)N3CCOCC3)ccc2N2CCCCC2)cc1 was read as Prx2 Sm inh >57 and LT uptake inh -6.6%.
COC(=O)c1ccccc1NC(=O)CN(C)S(=O)(=O)c1ccc(OC)c(C)c1 was read as Prx2 Sm inh >57 and LT uptake inh -36.5%.
For C#CCNc1nc(C(C)C)nc2c1nnn2Cc1ccccc1F the results were Prx2 Sm inh >57 and LT uptake inh -8.7%.
O=C1C[C@H](c2ccccc2)[C@@H](c2ccc(Br)cc2)O1 was read as LT uptake inh -3.2%[8 µM].
Screening Cc1cc(C(=O)CSc2nnc(C3COc4ccccc4O3)n2C)c(C)n1-c1ccc(F)cc1 (centres undefined) returned Prx2 Sm inh >57 and LT uptake inh inconclusive.
For Nc1ccc2nc3n(c(=O)c2c1)CCC3 the results were Prx2 Sm inh >57 and LT uptake inh -1.0%.
Screening COC(=O)c1ccc2c(=O)n(CC3CCCO3)c(SCC(=O)Nc3ccccc3OC)nc2c1 (centres undefined) returned Prx2 Sm inh >57 and LT uptake inh 7.6%.
Screening CC(C)n1c(SCC(N)=O)nc2c1c(=O)[nH]c(=O)n2C returned Prx2 Sm inh >57 and LT uptake inh inconclusive.
`Cn1c(C(C#N)C(=O)c2ccco2)nc2ccccc21` (centres undefined) gave LT uptake inh inconclusive.
Screening CCN(CC)C(=O)CP(=O)(c1ccccc1)c1ccccc1 returned LT uptake inh -5.8%.
O=C(NCc1cccc(F)c1)c1noc2c1CCCC2 was read as Prx2 Sm inh >57 and LT uptake inh -5.3%.
`FC(F)(F)c1cc(-c2ccco2)nc(NCc2cccnc2)n1` gave Prx2 Sm inh >57 and LT uptake inh -28.9%.
Screening CC(=O)NCCNc1nc(-c2ccccc2CN(C)C)nc2ccccc12 returned Prx2 Sm inh >57 and LT uptake inh 1.2%.
`CCOC(=O)c1oc2ccc(S(=O)(=O)n3nc(-c4ccc(OC)cc4)cc3N)cc2c1C` gave Prx2 Sm inh >57 and LT uptake inh inconclusive.
`CN(CC(=O)O)S(=O)(=O)c1cc(Cl)ccc1Cl` gave Prx2 Sm inh >57 and LT uptake inh 2.9%.
For COc1ccc(-c2nnc(SCC(=O)N3CCOCC3)o2)cc1 the results were Prx2 Sm inh >57 and LT uptake inh 5.9%.
For Cc1nn(-c2ccccc2)c2sc(C(=O)n3cccn3)cc12 the results were LT uptake inh -0.9%.
For CN(C(=O)c1cc2sccc2n1C)C1CCCCC1 the results were Prx2 Sm inh >57 and LT uptake inh inconclusive.
For Cc1cc(O)ccc1Nc1nc(-c2sc(N)nc2C)cs1 the results were Prx2 Sm inh >57 and LT uptake inh -0.4%.
For COCCN1C(=O)C(=O)/C(=C(/O)c2ccc(OCC(C)C)cc2)C1c1cccnc1 (centres undefined) the results were Prx2 Sm inh >57 and LT uptake inh -0.2%.
O=C(O)/C(=C1/OC(=O)c2ccccc21)c1ccccc1 was read as Prx2 Sm inh >57 and LT uptake inh -1.5%.
CCOC(=O)C1CCCCN1Cc1cc(Cl)ccc1O (centres undefined) was read as LT uptake inh inconclusive.
`C/C(N)=C(\C#N)C(=O)NCc1ccccn1` gave Prx2 Sm inh >57.
`COCCSc1nnc(-c2cccc(C#N)c2)n1C` gave Prx2 Sm inh >57 and LT uptake inh 6.3%.
Screening CC(C)C(c1nnnn1Cc1ccc(F)cc1)N1CCN(C(=O)c2ccco2)CC1 (centres undefined) returned Prx2 Sm inh >57 and LT uptake inh -3.1%.
`Cc1ccc2[nH]c3c(c2c1)CN(C(=O)CN1CCN(c2ccccc2F)CC1)CC3` gave Prx2 Sm inh >57 and LT uptake inh inconclusive.
`CC(C)[C@H](O)C1=CCCCC1=O` gave LT uptake inh 10.6%[0.32 µM].
For CC(=O)c1ccc(NC(=O)C2CCCN2S(=O)(=O)c2ccc(C)cc2)cc1 (centres undefined) the results were Prx2 Sm inh >57 and LT uptake inh -16.8%.
O=C(Nc1ccc2c(c1)OCO2)c1ccc(Br)c(S(=O)(=O)N2CCCC2)c1 was read as Prx2 Sm inh >57.
O=C(CSc1nnc(CNC(=O)c2ccccc2F)o1)c1ccccc1 was read as Prx2 Sm inh >57 and LT uptake inh -0.6%.
`COc1ccc(OC)c(NS(=O)(=O)c2cc(OC)ccc2OC)c1` gave Prx2 Sm inh >57 and LT uptake inh -16.7%.
CCN(CC)S(=O)(=O)c1ccc2nc(COC(=O)c3n[nH]c4ccccc34)[nH]c2c1 was read as Prx2 Sm inh >57 and LT uptake inh 14.3%.
`CN(C)S(=O)(=O)c1cccc(C(=O)N2CCN(Cc3ccccc3)CC2)c1` gave Prx2 Sm inh >57 and LT uptake inh 3.8%.
O=C(O)c1ccc(-n2cccc2)cc1O was read as Prx2 Sm inh >57 and LT uptake inh -8.4%.
For CCNc1ncc2nc(-c3ccc(F)cc3)c(=O)n(CCC#N)c2n1 the results were Prx2 Sm inh >57 and LT uptake inh inconclusive.
`Cc1c(C(=O)O)oc2ccc(S(=O)(=O)N3CCC(C)CC3)cc12` gave Prx2 Sm inh >57 and LT uptake inh 8.1%.
For COc1cc(-c2nnn(CC(=O)NC3CCS(=O)(=O)C3)n2)ccc1OCc1ccccc1 (centres undefined) the results were Prx2 Sm inh >57 and LT uptake inh 5.6%.
